# MLL AF4-AF9 inh: inhibitors of AF4 peptide binding to AF9, primary screen, biochemical, AlphaScreen, biotin-AF4 peptide, FLAG-AF9, single point; Protein AF-9 (Homo sapiens), P42568; inhibition, % at 10 µM; 350,000 tested, 0.47% active; AID 651704, 2012;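 active means every replicate reaching a set inhibition limit, whatever the replicate mean, cut at about 25% in these data; inconclusive means mean inhibition reaches that limit but some replicates miss it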;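 further: 0% = plate neutral control median and 100% = total signal loss; the record names both 10 and 1 µM as test concentration; the first replicate is given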
# Target sequence (P42568 whole entry, looked up): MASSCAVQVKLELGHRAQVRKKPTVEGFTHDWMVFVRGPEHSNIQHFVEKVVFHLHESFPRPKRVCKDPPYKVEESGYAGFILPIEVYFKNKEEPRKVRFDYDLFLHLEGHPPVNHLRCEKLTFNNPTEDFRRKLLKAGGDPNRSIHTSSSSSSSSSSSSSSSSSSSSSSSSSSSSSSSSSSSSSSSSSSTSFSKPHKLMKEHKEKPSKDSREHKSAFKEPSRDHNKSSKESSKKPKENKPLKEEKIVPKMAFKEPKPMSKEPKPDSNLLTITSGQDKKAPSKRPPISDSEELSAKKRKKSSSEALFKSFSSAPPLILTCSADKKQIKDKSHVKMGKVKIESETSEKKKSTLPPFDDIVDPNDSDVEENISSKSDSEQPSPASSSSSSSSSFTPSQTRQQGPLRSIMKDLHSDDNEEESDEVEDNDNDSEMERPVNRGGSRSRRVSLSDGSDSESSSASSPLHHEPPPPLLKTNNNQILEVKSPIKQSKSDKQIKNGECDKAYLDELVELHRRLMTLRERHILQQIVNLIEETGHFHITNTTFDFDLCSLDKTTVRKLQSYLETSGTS
# Beta cell apopt: inhibitors of cytokine-induced beta cell apoptosis, primary screen, luminescence. INS-1E cytokine-induced death, ATP luminescence, 48 h; percent of positive-control rescue, neutral wells zero. protection from apoptosis, % (test concentration not listed). 300,000 tested, 0.8% active. AID 435005, 2010;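 active means all replicates at 75% or more, or half of them and the mean; inconclusive means half reach 75% but not the mean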;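 further: 0% = cytokine-treated negative control wells and 100% = positive control rescue; higher means more ATP so stronger rescue from cytokine killing; wells of about 40 µL received 100 nL stock; the first replicate is given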
# LANA-H2A inh: blockers of LANA interaction with H2A/H2B – biochemical, FP readout, HTS, primary screen. Protein LANA1 (Human herpesvirus 8 type P (isolate GK18)), Q9QR71. cell-free LANA-H2A/H2B peptide, fluorescence polarization. inhibition, % (concentration not given with the values). 320,000 tested, 0.6% active. AID 2629, 2010; in the data active means inhibition mostly above about 10%, no sharp cut-off; inactive means mostly below about 6.7%;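 further: stock transfer was 7.5 nL into about 10 µL; 0% = median of vehicle wells and 100% = median of positive control wells; one replicate is shown; the record names a cut of 25% in any replicate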
# T cruzi inh: inhibitors of intracellular T. cruzi growth, primary screen, luminescence, NIH3T3 host cells | T. cruzi beta-gal in NIH3T3, 90 h | inhibition, % (test concentration not listed) | 300,000 tested, 1.4% active | AID 1885, 2009;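 active means mean inhibition across valid replicates above about 55%, limit read from the data; inconclusive means mean below that limit but half or more replicates reach it; inactive means mean below it, under half of replicates reach it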;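 further: signal also drops with host cell toxicity which is not excluded here; 0% = plate median of DMSO wells and 100% = zero luminescence signal; higher percent means less beta-gal luminescence so fewer parasites; stock transfer was 50 nL into about 50 µL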
# RanGTP-Imp inh: inhibitors of RanGTP-importin-beta interaction, primary screen, biochemical, FRET, CFP-Ran, YFP-importin-beta, homogeneous; AID 2216, 2009; cell-free CFP-Ran/YFP-importin-beta FRET ratio; inhibition, % (no concentration beside the values); Ran GTPase (GTP-bound) - importin-beta complex; 300,000 tested, 1.1% active;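 active means most replicates above 15%; inconclusive means exactly half above 15%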;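 further: 0% = DMSO wells and 100% = Ran loaded with GDP instead of GTP; wells of about 40 µL received 100 nL stock; the first replicate is given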
# Calb FLC: C. albicans growth inhibition with fluconazole, primary screen, CaCi-2 strain, Alamar Blue fluorescence. C. albicans CaCi-2 (fluconazole-resistant clinical isolate) + fluconazole, 48 h. growth inhibition, % (test concentration not listed). 300,000 tested, 0.57% active. AID 1979, 2009;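 active means most replicates above 75%; inconclusive means exactly half above 75%; inactive means most below 75%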;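 further: all wells also contain fluconazole at 8 µg/ml as a sub-toxic cotreatment; 0% = median of DMSO wells and 100% = median of geldanamycin control wells; wells of about 8 µL received 7.5 nL stock; the first replicate is given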
# Bfl-1 A1 inh: caspase 3/7 activation in MEF A1-2A-BIM cells, primary screen, A1 inhibitor project, cell-based, luminescence, HTS; Caspase-Glo 3/7 luminescence, 3 h; percent of clofoctol response, vehicle zero; caspase activation, % (concentration not given with the values); 330,000 tested, 0.066% active;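 active means over half of replicate activation scores above 10%, or exactly half above 10 with the replicate mean above 10; inconclusive means replicate mean below 10 yet half the replicates above 10; inactive means over half of replicates below 10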;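 further: wells of about 30 µL received 50 nL stock; many hits fall short of the cut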
# Vif TR-FRET: inhibitors of Vif binding to APOBEC3G peptide, primary screen, biochemical, TR-FRET, GST-Vif 1-94, biotin-A3G peptide, dose response retest (AID 1117319). TR-FRET GST-Vif / biotin-A3G peptide binding; higher % means a stronger effect; test concentration not given here; strong numbers were not always called active. 260,000 tested, 0.57% active. one-dose inhibition, %; IC50 in µM for titrated hits. Virion infectivity factor (Human immunodeficiency virus type 1 group M subtype B (isolate …;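 active means above the screen mean plus three standard deviations and confirmed in dose response; inconclusive means results disagree or hit not tested in dose response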;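 further: Vif residues 1-94 fused to GST binding biotinylated APOBEC3G peptide 110-148; 0% = full assay without inhibitor and 100% = GST in place of GST-Vif; retest series ran down from 100 µM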
# * hit, by the source's call; ? = inconclusive; · = no result given.
SMILES,MLL AF4-AF9 inh,Beta cell apopt,LANA-H2A inh,T cruzi inh,RanGTP-Imp inh,Calb FLC,Bfl-1 A1 inh,Vif TR-FRET
O=C(CCC(=O)NC1CCCCC1)N/N=C/c1ccncc1,-4.5,-3,-2.7,-3,3.4,2,-0.8,4%
COc1ccc(N(CC(=O)NC2CCS(=O)(=O)C2)S(=O)(=O)c2cc(C)ccc2C)cc1 (stereo not drawn),0.4,-1,4.1,·,·,·,1.3,1%
Cc1cccc(C)c1NC(=O)CSc1ccc([N+](=O)[O-])cn1,-9.0,2,-1.8,-22,-2.2,-10,-0.5,-5%
O=[n+]1cc(-c2cc3ccccc3o2)n([O-])c2c1CCCC2,·,0,-1.0,-5,1.8,-5,-0.6,·
O=C(CCSc1nnnn1-c1ccccc1)N1CCOCC1,·,-3,-9.5,-6,-6.9,20,1.5,6%
COc1cc(C2=NOC(C(=O)NCc3cccnc3)C2)cc(OC)c1OC (stereo not drawn),0.9,0,-0.3,-6,3.5,-2,-0.1,-4%
COc1ccccc1NC(=O)CCC(=O)N(Cc1ccc(OC)c(OC)c1)c1nccs1,1.4,-3,1.7,-14,-4.0,-17,0.4,8%
Cc1ccc(NC(=O)/C(=C\c2ccco2)NC(=O)c2ccco2)cc1,-2.2,1,11,-3,-0.8,1,0.9,·
O=C(CC1Oc2ccccc2NC1=O)NCCCN1CCN(C2CCCCC2)CC1 (stereo not drawn),11,3,-1.6,3,?,3,0.0,·
NC12CC3CC(C1)CC(CC(=O)O)(C3)C2,-0.6,·,0.1,-10,1.0,1,0.8,15%
O=C(O)COc1ccc(NC(=O)c2cccs2)cc1,2.2,·,2.6,-16,-0.6,0,-3.1,5%
Cc1ccc(C2CC2C(=O)NNC(=S)Nc2ccc(Cl)cc2)cc1 (stereo not drawn),·,1,0.7,-6,-1.7,-18,0.4,6%
CCCCNC(=S)N1CCC(Cc2ccccc2)CC1,0.1,3,3.3,-10,1.4,6,1.5,·
CC(Nc1nc(-c2ccc(Cl)cc2)cs1)c1nc2cc(Cl)c(N3CCCCC3)cc2n1CCOCCO (stereo not drawn),0.0,3,-0.1,37,-0.9,-2,0.7,·
O=C(NNC(=O)c1ccccc1O)c1ccc(-c2ccc([N+](=O)[O-])cc2)o1,0.3,·,0.6,5,2.4,91*,-0.7,32µM*
O=S(=O)(c1ccc(Cl)s1)N1CCN(CCc2ccccc2)CC1,-0.6,-5,3.0,21,2.2,-6,-0.4,-6%
COc1cccc(N2C(=O)C3CCCN3C2=S)c1 (stereo not drawn),-4.7,·,4.1,-3,4.7,-6,-0.4,·
CCCn1c(SCC(=O)c2ccc3c(c2)OCCO3)nnc1C(C)C,·,-5,0.8,-9,2.6,-6,0.0,0%
CC(=O)N1CCc2cc(S(=O)(=O)CCC(=O)Nc3cccc(F)c3)ccc21,·,-5,-0.6,-32,0.4,-3,-0.3,6%
CN(C(=O)CCc1nc(-c2ccccc2F)no1)c1ccccc1,7.6,-8,1.3,7,3.4,4,-2.3,-6%
CCOC(=O)CC(NC(=O)c1ccco1)c1ccccc1Cl (stereo not drawn),·,-2,-0.3,-14,3.8,-2,-0.1,3%
COc1ccccc1OS(=O)(=O)c1ccc(NC(C)=O)cc1,-1.6,-12,-5.8,8,-2.5,27,1.2,-2%
CCCN(CC(=O)Nc1cc(Cl)ccc1Cl)C(=O)/C=C/c1cc(OC)ccc1OC,-1.0,10,-2.6,·,·,·,-0.4,·
CCC(C)NCCCCOc1ccc(Cl)cc1C (stereo not drawn),·,12,-3.8,9,0.4,-15,1.1,-1%
NC(=S)N/N=C/c1cn(-c2ccccc2)nc1-c1cccnc1,-15,33,-4.7,-16,1.5,0,-2.6,-2%
COc1cc(C(=O)NCC2CCCO2)ccc1OCc1ccc(Cl)cc1Cl (stereo not drawn),-2.1,6,-1.5,10,5.3,14,0.0,-2%
Cc1cc(/C([O-])=C(/C(=S)Nc2ccc(F)cc2)[n+]2ccccc2)c(C)n1Cc1ccccc1Cl,16,-3,7.9,8,3.5,-1,0.5,4%
CC(NS(=O)(=O)c1ccccc1)C(=O)NCCc1ccccn1 (stereo not drawn),-1.3,-5,-6.3,-5,-5.7,-10,0.4,-3%
COc1cccc(/C=N/NC(=O)C(=O)N/N=C/c2cccc(OC)c2OC)c1OC,0.0,-5,0.8,-11,0.7,11,-0.3,7%
CN(CC1CCOCC1)C(=O)CC1C(=O)NCCN1Cc1cccc(C(F)(F)F)c1 (stereo not drawn),1.5,·,·,-10,1.0,-1,·,·
Cc1ccc(C(=O)NC2=NCCS2)cc1Cl,·,2,-2.8,1,-0.7,9,-5.5,·
Fc1ccc2nc(Nc3ccccc3)sc2c1,-3.3,5,-0.1,-27,-0.3,-9,-5.7,-8%
COc1ccccc1C(=O)Nc1ccc(N2CCCCC2)cc1,·,2,7.9,10,1.4,-2,-1.4,3%
Cn1c(N)c(C(=O)COC(=O)Cc2ccccc2F)c(=O)n(C)c1=O,-1.3,1,-0.5,·,·,·,-0.2,4%
CCn1c(SCC(=O)NC2CC2)nnc1-c1cccs1,-0.6,-2,6.4,·,·,·,-0.9,·
COc1ccccc1NC(=O)CCCC(=O)OCC(F)(F)C(F)F,·,1,2.2,-6,?,12,1.4,-1%
O=C(N/N=C/C=C/c1ccccc1)NC1CCCCC1,-2.8,-2,-4.4,7,0.9,-2,0.5,-3%
CCOC(=O)CSc1nc(-c2ccccc2)nc2c1oc1ccccc12,·,-18,-6.1,-7,0.7,-3,0.1,?
COc1cc2c(cc1NC(=O)COc1ccccc1OC)oc1ccccc12,·,-2,-1.6,7,-3.6,-3,-0.2,-5%
Cc1ccc(C(=O)Nc2ccc3ccccc3n2)cc1,-6.6,1,0.4,16,7.8,-12,-6.4,-10%
O=C(NCc1ccccc1Cl)c1ccc(NC2=NC3CS(=O)(=O)CC3S2)cc1 (stereo not drawn),5.8,-7,-1.9,3,-0.1,-5,1.3,·
COc1ccc(C(=O)NCCc2nnc(SCC(=O)Nc3ccccc3)n2C)cc1,·,·,4.0,-31,-6.0,-5,1.4,12%
Cc1nn(Cc2ccc(C(=O)N3CCN(C(=O)c4ccco4)CC3)o2)c(C)c1[N+](=O)[O-],2.9,·,0.9,8,1.3,-5,-0.2,-1%
O=C(ON=C1CCN(S(=O)(=O)c2ccccc2)CC1)c1ccccc1,·,-8,1.1,-1,1.5,6,-0.2,-5%
COc1cccc(OCCNCc2ccccc2)c1,-24,-1,0.9,-12,7.2,-1,0.9,·
CC(CC(=O)O)CC1=NS(=O)(=O)c2ccccc2N1 (stereo not drawn),·,-4,2.7,-3,-3.3,-13,0.3,2%
CCCCn1c(N)c(N(CCOC)C(=O)CSc2nc3ccc(C)cc3[nH]2)c(=O)[nH]c1=O,·,-8,0.6,6,-0.7,18,-2.1,1%
O=C(NNS(=O)(=O)c1ccccc1)c1ccc([N+](=O)[O-])cc1,-2.3,0,0.5,-4,-5.2,21,1.1,·
Cc1cc(C)c(NC(=O)C2CC3CCC2C3)c(C)c1 (stereo not drawn),·,-4,-0.4,-4,0.0,-11,-0.1,2%
O=C(/C=C/c1ccc(F)cc1)OCC(=O)c1ccc[nH]1,-2.4,-8,86*,·,·,·,-1.0,-1%
CC(C)(C)C(=O)Nc1ccc(C(=O)CSc2nnc(C3CC3)n2C2CC2)cc1,-1.7,-2,1.3,·,·,·,0.8,-9%
CCc1cc2cc(OC)ccc2nc1SCC(=O)Nc1cc(OC)c(OC)cc1C(=O)O,-15,1,2.5,-6,1.5,52,1.8,-1%
COc1ccc(S(=O)(=O)N2CCCC(C(=O)NCc3ccccn3)C2)cc1Cl (stereo not drawn),-57,-1,-1.8,-1,3.1,4,0.9,-9%
C/C(=N\NC(=O)C1CC1(C)c1ccccc1)c1ccco1 (stereo not drawn),·,·,2.7,14,0.2,7,0.2,·
CCCCCCCNC(=O)CC(NS(=O)(=O)c1ccc(NC(C)=O)cc1)C(C)C (stereo not drawn),·,6,-5.3,7,-1.0,-16,0.5,-10%
CC(=O)Nc1ccc2nc(NC(=O)COc3ccccc3)sc2c1,0.1,-6,-0.5,-4,-2.5,-12,-0.1,-2%
CC(C)c1nc2ccc(Br)cn2c1NC1CCCC1,0.8,1,0.6,-10,1.8,8,1.0,-3%
O=C(Nc1ccccc1)c1ccc(S(=O)(=O)NCc2cccnc2)cc1,-7.8,9,2.6,-16,-1.4,-5,0.1,·
CC1(C)CC2(CCO1)OC(=O)CC2C(=O)Nc1cccc2ccccc12 (stereo not drawn),·,0,-1.9,-9,-3.1,-11,1.7,20%
CC1CCN(CCC(=O)Nc2nccs2)CC1,·,-5,3.8,-1,3.3,3,-0.5,·
# The listing continues.
SMILES,MLL AF4-AF9 inh,Beta cell apopt,LANA-H2A inh,T cruzi inh,RanGTP-Imp inh,Calb FLC,Bfl-1 A1 inh,Vif TR-FRET
COc1cc(/C=C2\SC(=S)N(NC(=O)c3ccccc3OC)C2=O)ccc1O,-0.6,-1,-1.2,-3,0.1,2,-1.0,1%
O=C1CCCN2N=C(SCC(=O)N3CCCCC3)SC2=N1,-8.2,-1,0.9,19,-0.4,22,0.9,·
COc1ccc(CCNC(=O)c2ccc(CS(=O)(=O)Cc3cccc(C)c3)o2)cc1OC,0.8,3,-1.0,0,4.1,-2,0.3,·
Cn1c(SCc2ccccc2C#N)nc2ccccc2c1=O,1.8,4,2.5,20,7.2,9,0.2,·
CC(C(=O)N1CCCC1)N1CCN(S(=O)(=O)c2ccccc2)CC1 (stereo not drawn),0.4,-2,-0.2,·,·,·,-0.2,·
Cc1ccc(C)c(OCCCC(=O)Nc2ccccc2C(N)=O)c1,3.5,3,-5.4,-1,-0.4,5,1.0,9%
C/C=C(/C)C(=O)O[C@@H]1c2c(ccc3ccc(=O)oc23)O[C@@H]1C(C)(C)OC(C)=O,-0.4,10,1.8,5,-1.9,12,0.2,1%
COc1cc(NC(=S)N2CCCC(C)C2)cc(OC)c1OC (stereo not drawn),0.9,4,1.2,-2,8.0,-5,-0.3,-4%
CCOC(=O)c1cnc(C(C)(C)C)[nH]c1=O,·,3,-1.1,-7,?,-1,0.2,9%
Cc1csc2ncnc(N3CCN(C(=S)Nc4ccc(C(F)(F)F)cc4)CC3)c12,2.1,1,3.3,-19,0.8,-7,0.5,-9%
CC1(C)CC(=O)C=C(N2CCNCC2)C1,·,0,2.0,-5,7.4,-6,0.9,2%
COC(=O)c1ccccc1NC(=O)CSc1nnc(-c2cccc(NC(C)=O)c2)n1C,·,1,-10,-1,1.8,1,-0.2,-3%
CSc1ncccc1C(=O)OCC(=O)Nc1ccc(C)c(S(=O)(=O)N2CCOCC2)c1,-0.1,3,-0.1,·,·,·,-0.5,1%
